From PubChem BioAssay
MT1-MMP act inh: inhibitors of human MT1-MMP activation. AID 651647. GFP/RFP ratio change, % at 20 µM. HT1080 RFP-PRO-GFP cells, GFP/RFP ratio fluorescence, overnight; percent of plate control window, DMSO zero. 360,000 tested, 0.061% active. P50281;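 active = GFP/RFP ratio change of at least 30% with cell ATP level not reduced by more than half and red fluorescence within 50% of control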; note: strong numbers were not always called active
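system = RFP-PRO-GFP reporter HT1080 cells | dosing = 20 µM single dose, 1% DMSO | timing = overnight cell settling, then overnight compound exposure, 37 °C, 5% CO2 | read-out basis = GFP/RFP fluorescence ratio | controls = DMSO and RFP-L50D-GFP cell wells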
CSC inhib: blocks cancer stem cells. cancer stem cell-like cells viability, luminescence. inhibition, % at 7.5 µM. 300,000 tested, 1.1% active. AID 2717;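 active = mean at 75% or more and at least half the replicates too; tested in HMLE shEcad cells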;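 note: 0% = median of negative and 100% = median of positive control wells; the first replicate is given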
PABP FP inh: PABP-poly(A) binding inhibition; P11940; 290,000 tested, 1% active; inhibition, % at 35 µM; PABP-poly(A) RNA binding, fluorescence polarization;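 active = 50% or more with normal probe brightness, or confirmed in later tests; about a fifth of its hits are not listed in these tables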;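 note: calls also rest on retests at 20 µM and on dose response follow-up; controls were probe without protein and protein plus probe with vehicle; some compounds called inactive have numbers as strong as hits; many hits fall short of the cut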
Target sequence (P11940 whole entry, looked up): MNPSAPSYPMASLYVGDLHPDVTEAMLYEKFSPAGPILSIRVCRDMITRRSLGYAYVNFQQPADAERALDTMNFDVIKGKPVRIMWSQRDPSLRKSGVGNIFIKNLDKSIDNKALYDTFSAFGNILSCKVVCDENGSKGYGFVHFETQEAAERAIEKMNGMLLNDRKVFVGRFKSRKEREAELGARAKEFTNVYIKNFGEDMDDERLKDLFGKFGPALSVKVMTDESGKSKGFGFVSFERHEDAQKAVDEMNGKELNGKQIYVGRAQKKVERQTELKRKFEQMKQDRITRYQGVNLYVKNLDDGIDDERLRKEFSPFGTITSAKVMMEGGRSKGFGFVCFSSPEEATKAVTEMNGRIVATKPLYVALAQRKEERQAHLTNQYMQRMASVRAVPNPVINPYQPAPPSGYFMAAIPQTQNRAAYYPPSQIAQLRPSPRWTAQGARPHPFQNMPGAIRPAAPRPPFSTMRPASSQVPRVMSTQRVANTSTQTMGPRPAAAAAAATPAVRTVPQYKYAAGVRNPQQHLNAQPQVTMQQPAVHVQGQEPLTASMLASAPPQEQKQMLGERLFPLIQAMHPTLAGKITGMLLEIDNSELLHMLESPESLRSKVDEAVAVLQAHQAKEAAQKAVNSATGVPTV
UUG fidelity: modulators of start codon recognition fidelity in yeast; 350,000 tested, 0.13% active; S. cerevisiae UUG-firefly luciferase reporter, luminescence/redox ratio; activity score, % at 18.7 µM;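 active = replicate mean at a twofold rise or more, about +100% in these data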;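 note: firefly luciferase made from a UUG start codon reports start codon fidelity; reporter light over untreated wells divided by growth signal over untreated wells; some hits fall short of that in this replicate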
eIF4H inh: inhibitors of RNA binding by human eIF4H. inhibition, % at 35 µM. eIF4H fluorescence polarization binding assay. 290,000 tested, 0.94% active. Q15056;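 active = 50% or more with normal probe brightness, or confirmed in later tests; about a fifth of its hits are not listed in these tables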;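 note: calls also rest on retests at 20 µM and on dose response follow-up; 0% = protein and probe with vehicle and 100% = probe without protein; strong numbers were not always called active; many hits fall short of the cut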
Rce1 inh: blocks yeast Ras-converting enzyme. Q03530. yeast membranes, quenched prenylated peptide cleavage fluorescence. calls only. 290,000 tested, 0.27% active. AID 2563;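 active = fall in fluorescence gain of 50% or more versus controls, with final raw signal at or below 3038400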;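 note: plate controls were neutral control wells for no effect and wells lacking membranes for full effect; tested at 10 µM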
Target sequence (Q03530 whole entry, looked up): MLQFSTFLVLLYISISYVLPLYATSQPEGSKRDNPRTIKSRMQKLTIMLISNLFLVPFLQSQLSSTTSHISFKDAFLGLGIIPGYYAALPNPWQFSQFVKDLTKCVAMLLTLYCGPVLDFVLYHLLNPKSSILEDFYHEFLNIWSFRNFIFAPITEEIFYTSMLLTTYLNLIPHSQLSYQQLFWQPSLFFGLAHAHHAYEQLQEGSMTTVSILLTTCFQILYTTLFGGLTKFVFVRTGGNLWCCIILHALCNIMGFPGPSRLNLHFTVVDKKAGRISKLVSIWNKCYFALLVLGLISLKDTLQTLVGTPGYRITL
HIV Env fusion: inhibitors of HIV Env-mediated cell fusion; 360,000 tested, 1.1% active; AID 651610; inhibition, % at 12.3 µM; HeLa-JRFL Env/CEM21 cell fusion, luciferase;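 active = mean replicate inhibition score of at least 50 and every replicate individually at or above 50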;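 note: 0% = plate neutral controls and 100% = maraviroc near 300 nM; one replicate is shown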
eIF4H inh retest: recorded beside eIF4H inh, whose call it bears; inhibition, %; compound at 20 µM; confirmation average;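 mean of two retest wells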
PABP FP inh retest: further read-out of PABP FP inh, marked with its call; inhibition, %; compound at 20 µM; confirmation repeats;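 mean of two retest wells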
MT1-MMP act inh RFP: also measured in MT1-MMP act inh; calls as there; RFP signal change, %; measured here: RFP expression control read;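 0 = vehicle wells; hits needed this value within 50% of zero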
Numbers without * were called inactive; i = inactive; / = not tested or not shown; & = joins results of further samples.

SMILES	MT1-MMP act inh	MT1-MMP act inh RFP	CSC inhib	PABP FP inh	UUG fidelity	eIF4H inh	Rce1 inh	HIV Env fusion	others
COc1ccc(C2(C(=O)Nc3ccc(S(N)(=O)=O)cc3)CCCC2)cc1	-2	0	-6	-3	/	-11	i	-21
Cc1ccc2c(c1)N(C(=O)CCC(=O)NCCCN1CCN(C)CC1)CC(C)O2 (stereo unspecified)	1	2	-3	-1	-9	6	i	/
CCCc1c(C(=O)N/N=C/c2ccccc2C(F)(F)F)nnn1-c1nonc1N	5	-1	-8	6	-8	-10	i	-13
Cc1nn(-c2nc3ccccc3[nH]2)c(N)c1-c1ccccc1	7	-10	31	-9	-26	16	i	-342
O=c1c2ccccc2nc(CSc2nnnn2-c2ccccc2)n1-c1cccc(C(F)(F)F)c1	2	1	-7	-8	6	7	i	/
Cc1c(C)c2ccc(OCC(=O)c3ccccc3)cc2oc1=O	-5	0	-6	1	-5	2	i	-49
COc1ccccc1NS(=O)(=O)c1cc(NC(=O)C2CCCC2)ccc1N1CCOCC1	7	1	-9	-4	/	-2	/	-81
Nc1nonc1-c1nc2ccccc2n1Cc1ccc(Cl)cc1	-3	0	39	-5	-20	-11	i	14
COc1ccccc1N1C(=NC(=O)CCC2CCCC2)SC2CS(=O)(=O)CC21 (stereo unspecified)	-7	0	-11	0	-7	-3	i	2
CCCCn1c(N)c(N(CCOC)C(=O)c2ccc(N3C(=O)CCC3=O)cc2)c(=O)[nH]c1=O	-2	3	/	/	2	/	i	5
Cc1cccc2sc(NC(=O)c3cc(S(=O)(=O)N(C)C)ccc3N3CCCC3)nc12	-6	-20	59	-10	-4	-4	i	31
COC(=O)c1ccccc1NC(=O)N1c2ccccc2CC1C (stereo unspecified)	-3	-8	9	-12	-6	-14	i	-72
O=C(CN1CCCC1)Nc1ccc([N+](=O)[O-])cc1Cl	-2	2	-15	0	-14	-4	i	9
CCOC(=O)c1ccc(N2C(=O)c3n[nH]c(C)c3C2c2ccccc2)cc1 (stereo unspecified)	-4	-2	-5	-3	-25	19	i	-30
CC(=O)Nc1ccc(NC(=O)C(C)OC(=O)C2CCN(S(=O)(=O)c3ccc4c(c3)OCCO4)CC2)cc1 (stereo unspecified)	1	5	2	/	-6	/	i	-8
CC1C(C#N)=C(N)OC2=C1C(=O)CC(C)(C)C2 (stereo unspecified)	-2	-3	-3	-3	-12	4	i	-23
CN(C)C(=O)CN1C(=O)C2CCCCN2C(=O)c2ccccc21 (stereo unspecified)	3	-3	-6	-4	3	11	i	/
CCCCCc1cc(OC)cc2c1C(=O)OC(C)(C)O2	0	2	/	/	-6	/	/	9
Cc1ccc(C(=O)NCCSCc2ccccc2)cc1[N+](=O)[O-]	5	2	-6	3	-7	-6	i	32
Cc1csc(CN(C)C(=O)CC2C(=O)NCCN2Cc2ccc(-c3ccccc3)cc2)n1 (stereo unspecified)	-6	-3	1	8	/	1	i	4
Nc1nc(Nc2ccccc2)nc(NCc2ccccc2)c1[N+](=O)[O-]	-3	-11	57	4	/	-10	i	8
CCOC(=O)c1c(C)[nH]c(C)c1C(=O)CN1C(=O)NC2(CCC(C)CC2)C1=O (stereo unspecified)	9	3	-4	10	3	-8	i	/
O=C(CCCC(=O)N(CC(=O)NC1CCCCC1)c1ccc(F)cc1)Nc1ccccn1	1	4	-2	5	-11	-5	i	6
CCOC(=O)c1cc(-c2ccc(OC(F)F)cc2)nc2nc(SC)[nH]c(=O)c12	3	-1	7	-9	/	-10	i	-11
COc1ccc(C(=O)NCc2nnc(SCC(=O)Nc3cc(C)on3)o2)cc1OC	0	2	1	10	/	-5	/	-5
Cc1cc(NS(=O)(=O)c2ccc(NC(=O)Nc3cccc(Cl)c3)cc2)no1	9	4	-5	2	-1	-8	i	-42
CCOCCOC(=O)NCCCCCCNC(=O)OCCOCC	0	3	-6	-4	/	-10	i	3
CN1CCN(C(=O)c2cc3c(n(-c4ccccc4)c2=O)CC(C)(C)CC3=O)CC1	0	9	-5	4	-23	-3	i	-28
C=C1C(C(=O)N2CCOCC2)C1C(=O)N1CCOCC1 (stereo unspecified)	-8	-1	-8	2	-4	-2	i	/
CC/C(=N\NC(=O)c1nnn(-c2nonc2N)c1-c1ccc2c(c1)OCO2)c1ccccc1	0	1	-19	-1	-11	-2	i	-6
Cc1c(CC(=O)N2CCC(C(N)=O)CC2)c(=O)oc2cc3c(cc12)CCC1(CCCCC1)O3	4	0	1	4	6	-15	i	/
N#CC1=C(N)Oc2cc(O)ccc2C1C1CCCCC1 (stereo unspecified)	-6	-13	47	-9	-32	0	i	/
COc1ccccc1C(=O)NCC(=O)OC(C)C(=O)NC(=O)NC1CCCCC1 (stereo unspecified)	-1	5	-9	-2	-4	0	i	/
CCOC(=O)N1CCN(C(=O)CN(C)S(=O)(=O)c2ccc(OCC)cc2)CC1	5	3	-5	6	-12	0	i	1
OC(c1ccccc1)(c1nc(-c2cccc(F)c2)cs1)C(F)(F)F (stereo unspecified)	-1	-2	/	/	-6	/	/	17
CC1CN(S(=O)(=O)c2cccc(C(=O)NCc3ccco3)c2)CC(C)O1 (stereo unspecified)	3	2	/	/	-10	/	/	-4

14 entries already listed, ordered by molecular weight, smallest number first:
SMILES	MT1-MMP act inh	MT1-MMP act inh RFP	CSC inhib	PABP FP inh	UUG fidelity	eIF4H inh	Rce1 inh	HIV Env fusion	others
N#CC1=C(N)Oc2cc(O)ccc2C1C1CCCCC1 (stereo unspecified)	-6	-13	47	-9	-32	0	i	/
C=C1C(C(=O)N2CCOCC2)C1C(=O)N1CCOCC1 (stereo unspecified)	-8	-1	-8	2	-4	-2	i	/
Nc1nc(Nc2ccccc2)nc(NCc2ccccc2)c1[N+](=O)[O-]	-3	-11	57	4	/	-10	i	8
CCOCCOC(=O)NCCCCCCNC(=O)OCCOCC	0	3	-6	-4	/	-10	i	3
CC1CN(S(=O)(=O)c2cccc(C(=O)NCc3ccco3)c2)CC(C)O1 (stereo unspecified)	3	2	/	/	-10	/	/	-4
CCOC(=O)c1c(C)[nH]c(C)c1C(=O)CN1C(=O)NC2(CCC(C)CC2)C1=O (stereo unspecified)	9	3	-4	10	3	-8	i	/
CN1CCN(C(=O)c2cc3c(n(-c4ccccc4)c2=O)CC(C)(C)CC3=O)CC1	0	9	-5	4	-23	-3	i	-28
Cc1cc(NS(=O)(=O)c2ccc(NC(=O)Nc3cccc(Cl)c3)cc2)no1	9	4	-5	2	-1	-8	i	-42
CCOC(=O)N1CCN(C(=O)CN(C)S(=O)(=O)c2ccc(OCC)cc2)CC1	5	3	-5	6	-12	0	i	1
COc1ccc(C(=O)NCc2nnc(SCC(=O)Nc3cc(C)on3)o2)cc1OC	0	2	1	10	/	-5	/	-5
O=C(CCCC(=O)N(CC(=O)NC1CCCCC1)c1ccc(F)cc1)Nc1ccccn1	1	4	-2	5	-11	-5	i	6
CC/C(=N\NC(=O)c1nnn(-c2nonc2N)c1-c1ccc2c(c1)OCO2)c1ccccc1	0	1	-19	-1	-11	-2	i	-6
Cc1csc(CN(C)C(=O)CC2C(=O)NCCN2Cc2ccc(-c3ccccc3)cc2)n1 (stereo unspecified)	-6	-3	1	8	/	1	i	4
Cc1c(CC(=O)N2CCC(C(N)=O)CC2)c(=O)oc2cc3c(cc12)CCC1(CCCCC1)O3	4	0	1	4	6	-15	i	/

Going on with the list:
SMILES	MT1-MMP act inh	MT1-MMP act inh RFP	CSC inhib	PABP FP inh	UUG fidelity	eIF4H inh	Rce1 inh	HIV Env fusion	others
Cc1cccc(C2c3[nH]c4ccccc4c3CCN2C(=O)c2noc3c2CCCC3)n1 (stereo unspecified)	0	0	0	-1	/	-14	i	-2
COc1ccc(/C=C(\C#N)C(=O)Nc2cc(S(=O)(=O)N3CCCCC3)ccc2N2CCCCC2)cc1	-12	-3	/	18	4	-8	i	11
CCOCC(=O)Nc1nc2ccccc2s1	4	0	-14	6	-6	-2	i	/
CC(C)=CC(=O)O[C@H]1[C@@H]2[C@H](C)C(=O)O[C@@H]2C[C@@H](C)[C@@H]2[C@@H](O)CC(=O)[C@]21C	4	1	6	-6	-11	-10	i	-25
COc1ccc(C(=O)Nc2ccccc2C(=O)NC(Cc2ccc(O)cc2)C(=O)NNC(=O)c2ccc(C)cc2)cc1 (stereo unspecified)	1	5	-2	-1	-12	4	i	/
Cc1ccc(S(=O)(=O)N2CCOCC2)cc1NC(=O)CSc1cccc[n+]1[O-]	2	0	9	9	/	-7	i	-9
O=C(N=Nc1c(O)[nH]c2ccc(Br)cc12)c1cc(-c2cccc3ccccc23)n[nH]1	6	4	56	-4	/	-9	i	-5
O=S(=O)(NC1=NCCCCC1)c1cccs1	-1	5	-7	-2	-25	2	i	/
O=C(COC(=O)c1ccc(CO)cc1)NCc1cccs1	-1	1	-19	1	-27	6	i	6
COc1ccc(C(=O)Nc2ccccc2-c2nnn(CC(=O)Nc3ccc4c(c3)OCCO4)n2)cc1	2	0	14	-3	-9	12	i	-49
c1ccc(Oc2ccccc2-c2cc(NCCc3cccnc3)n3nccc3n2)cc1	-1	7	/	/	-13	/	/	0
COC(=O)/C=C1\N/C(=N\c2nc(C)cc(C)n2)N(c2ccc(C)c(C)c2)C1=O	0	-5	-2	0	-1	-5	i	/
CC(=O)C1=C(O)C(=O)N(c2ccc(S(=O)(=O)Nc3nccs3)cc2)C1c1ccc(F)cc1 (stereo unspecified)	-3	-1	-2	12	-17	-8	i	3
Cc1cc(C)n2ncc(/C(N)=N/OC(=O)Nc3ccccc3)c2n1	1	0	-16	-6	/	10	i	-4
Cc1ccc(C(=O)NCC(=O)N(C)CC(=O)Nc2ccccc2Br)s1	0	1	-3	/	-12	/	/	4
COc1ccc(C(=O)NNC(=O)COC(=O)c2sccc2C)cc1	0	5	/	/	-12	/	/	-7
CC(=C/c1ccc(C(C)C)cc1)/C=N/NC(=O)Cn1nnnc1N	3	4	-3	9	-6	0	i	-1
COc1ccc([C@H]2/C=C\CN(S(=O)(=O)c3ccc4ccccc4c3)[C@@H](C)C(=O)N2Cc2ccc(F)cc2)cc1	-9	-14	13	/	-9	/	i	26
COc1ccc(S(=O)(=O)NCc2ccc(C(=O)N3CCc4ccccc4C3)cc2)cc1	-2	-5	-13	0	/	-5	i	-3
CC1(Oc2ccccc2-c2ccn[nH]2)CCN(Cc2ccc(OC(F)(F)F)cc2)C1 (stereo unspecified)	-3	-13	/	/	-18	/	/	39
O=C(Cc1ccccc1)Nc1ccc(NC(=O)c2ccco2)cc1Cl	0	2	15	0	-14	-8	i	-8
O=C1c2ccccc2C(=O)N1CC1CCCO1 (stereo unspecified)	2	3	/	4	-3	-9	i	/
O=C(NC1CCCCCC1)c1[nH]c(C(F)(F)F)nc1-c1ccccc1	2	-4	/	/	-8	/	/	-22
CCCCNc1cc(C(=O)O)cc(S(N)(=O)=O)c1Oc1ccccc1	0	4	-7	1	1&-2	-13	i	-13
Cc1ccc(NC(=O)c2ccc3ccccc3n2)cc1S(=O)(=O)N1CCOCC1	-1	-7	-5	-7	-10	83	i	1	eIF4H inh retest=0;PABP FP inh retest=-1
O=C(CCn1c(=O)oc2ccccc21)N1CCN(c2ccccc2F)CC1	4	4	-8	-2	-6	-10	i	2
CSc1nncc(-c2ccccc2)n1	-1	0	-6	3	-9	-1	i	-28
CCCOC(=O)c1ccc(Oc2cn[nH]c2-c2ccc(OCC(=O)NN)cc2O)cc1	7	-8	20	3	-5	-2	i	10
Cn1cc(CNC(=O)c2sc3cccc(Cl)c3c2Cl)cn1	-3	-9	-7	-1	/	-4	i	-34
